AID504770: E. coli YBA685 growth inhibition, screen for V. cholerae RctB inhibitors | actives 0.27% (n = 130,000) | E. coli YBA685 rctB-dependent plasmid, OD600 growth, 3 h; stronger effect = lower value | z-score (no concentration beside the values);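 active = z-score under -2 on both plates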;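 also: wells of about 30 µL received 100 nL stock; score is relative to mean and SD of the test wells; the first replicate is given; strong numbers were not always called active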
Ba CapD inh: blocks the Bacillus anthracis CapD enzyme; actives 0.23% (n = 140,000); z-score (concentration not given with the values); purified CapD enzyme, fluorescence intensity read-out; stronger effect = lower value; some hits fall short of the stated cut;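 active = z-score under -4 in either of two replicates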;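 also: stock transfer was 100 nL into about 40 µL; score is relative to mean and spread of the plate; one replicate is shown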
An asterisk follows results filed as active; nt = no result given; & = joins results of further samples.

SMILES | AID504770 | Ba CapD inh
O=c1c2ccccc2c(-c2ccc(Cl)cc2)nn1CN1CCOCC1 | 0 | 0.93
Nc1ccc(N2CCOCC2)cc1C(F)(F)F | -0.8 | nt
COc1ccccc1NC1=NC2CS(=O)(=O)CC2S1 (configuration not stated) | 1.6 | -0.29
COc1ccc2nc(SCC(O)c3ccccc3)[nH]c2c1 (configuration not stated) | -0.15 | -0.78
Fc1ccc(-c2cn3nc(-c4ccccc4)c(-c4ccccc4)nc3n2)cc1 | nt | 2.5
OC(COc1ccccc1)CN1CCN(Cc2ccc(Cl)cc2)CC1 (configuration not stated) | -0.1 | -0.47
Cc1ccc2ncc(-c3ccc(Cl)c(C)c3)nc2c1 | -0.3 | 0.23
CCOC(=O)C1=C(C)N=c2s/c(=C\c3cc(Br)ccc3O)c(=O)n2C1c1ccccc1 (configuration not stated) | nt | -0.17
COc1ccccc1N1CCN(Cc2ccc(C(=O)NC(C)C)cc2)CC1 | -0.3 | nt
CCCCOC(=O)c1cccc(NC(=O)C(C)C)c1 | -0.8 | 1.5
COC(=O)c1ccc(S(=O)(=O)NCc2ccccc2)n1C | nt | -0.18
CC(=O)N1CCN=C1SCc1ccc(C)cc1 | 0.9 | nt
CCN(CC)C(=O)CSc1nc(-c2ccc(F)cc2)nc2c1Cc1c(CO)cnc(C)c1O2 | -0.7 | 0.2
Cc1ccc(C)c(N/C=C/C(=O)C(C)(C)C)c1 | 0.15 | 0.05
Cc1ccc2[nH]c(C)c(CCC(=O)NC3CCCCC3)c2c1 | -0.25 | 0.035
Cc1ccccc1N1C(=O)c2ccccc2C1Nc1ccc2c(c1)OCCO2 (configuration not stated) | 1.2 | 6.2
C=CCn1c(OCc2ccccc2)n[nH]c1=S | -0.05 | -0.42
CCCc1cc(=O)oc2c1c(C)nn2-c1ccccc1 | nt | -0.76
O=C(COC(=O)Cc1ccc(Br)cc1)NCC1CCCCC1 | -0.5 | -0.86
CCN(CC(=O)NCc1ccc(F)cc1)C(=O)c1cc(=O)[nH]c2ccccc12 | 0.65 | nt
CCN1/C(=C\C(=O)C2CC2)Sc2ccccc21 | 0.05 | nt
CCCc1c(O)nc(SCc2ccccc2)[nH]c1=O | -0.05 | -0.15
CC(C)(CC(=O)O)CC(=O)N1CCN(C(c2ccccc2)c2ccccc2)CC1 | nt | 0.4
Cc1cc(C)nc(Nc2cc(C(F)(F)F)ccc2Cl)n1 | nt | -0.39
Cc1c(-c2cc(N)n(C)n2)sc2ccc(Cl)cc12 | 0.45 | 16
S=C(NCCN1CCOCC1)Nc1ccc(Nc2ccccc2)cc1 | -0.15 | -1
Cc1ccc2oc(-c3cc(NC(=O)C(C)C)cc(C)c3O)nc2c1 | -0.5 | nt
CCSCCOC(=O)C1=C(C)NC2=C(C(=O)CC(c3ccccc3OC)C2)C1c1cc(OC)c(OC)c(OC)c1 (configuration not stated) | nt | 4.7
COCCCCOC(=O)N1CCN(c2ccccc2Cl)CC1 | nt | -0.36
Cc1cc(C(=O)NC2CCCCC2)no1 | -0.25 | -0.62
Cc1ccc(-n2c(O)c(/C=N/Nc3nc4cc(S(=O)(=O)N5CCOCC5)ccc4o3)c3ccccc3c2=O)c(C)c1 | 0.1 | nt
CCN(CC)c1ccc(CNC(CC(=O)O)c2c[nH]c3ccccc23)cc1 (configuration not stated) | -1.2 | 0.43
CCc1c(C)sc(NC(=O)c2noc3c2CC(C(C)(C)C)CC3)c1C#N (configuration not stated) | 0.3 | 4.6
C=CCn1c(SCC(=O)Nc2ccc(F)cc2)nc2ccccc2c1=O | -0.3 | nt
NNC(=O)Cn1cc(C(F)(F)F)ccc1=O | -0.5 | nt
COc1ccc(CN2CCCC(C(=O)Nc3ccc(OC)c(OCC(C)C)c3)C2)cc1OC (configuration not stated) | -0.05 | 0.085
CCOC(=O)c1c(-c2ccccc2)oc2c1cc(OC(=O)c1ccccc1C)c1ccccc12 | nt | 17
O=C(OCCN1CCOCC1)c1ccccc1 | -1.1 | nt
CCC1(CC)C(=O)C=CNC1=O | 0.5 | -0.15&-0.28&1.9
Cc1ccc(S(=O)(=O)NCC(=O)NN=C2CCCCC2)cc1 | 1.9 | 0.29
O=C(SCc1ccco1)c1csc(C2COc3ccccc3O2)n1 (configuration not stated) | 0.65 | 0.6
Cc1ccc(Nc2ccc3ncnc4c3c2C(=O)c2ccccc2-4)cc1 | 1.6 | 0.24
n1onc2c1NC1Nc3nonc3NC1N2 (configuration not stated) | -0.6 | -0.26
CCOC(=O)N1CCC(NC(=O)CS(=O)(=O)Cc2nc(-c3ccc(C)cc3)oc2C)CC1 | 0.25 | 0.46
CCOC(=O)C1=C(O)/C(=C/c2ccc(OC)c(OC)c2)SC1=Nc1ccc([N+](=O)[O-])cc1 | nt | -0.025
CC1CN(CCO)Cc2ccc(Cl)cc21 (configuration not stated) | -0.3 | -0.28
O=C1CC2(CCN(C(=O)C3CCCC3)CC2)Oc2ccccc21 | -0.65 | nt
O=C(Cc1ccccc1)Nc1nccs1 | -0.25 | nt
CCOC(=O)c1sc2ncnc(N(C)Cc3ccccc3)c2c1C | nt | -0.055
CSc1ncccc1C(=O)OCCN1C(=O)c2ccccc2C1=O | 0 | nt

(continued)
SMILES | AID504770 | Ba CapD inh
CCN1CCSc2ccc(C(=O)NCc3ccco3)cc21 | 0.95 | 101
Cn1c2c(c(=O)n(C)c1=O)C(c1cccc([N+](=O)[O-])c1)Nc1ccccc1O2 (configuration not stated) | nt | 0.22
COc1cc(C2NC(=O)N(C)C(C)=C2C(=O)OCCOc2ccccc2)cc(Cl)c1O (configuration not stated) | nt | -0.33
CC(C)CNc1ncnc2nc[nH]c12 | -1.1 | 0.08
CCC(=O)NCCN1CCN(C(=O)CC)CC1 | nt | -0.38
C/C(=N\NC(N)=O)c1ccccc1 | nt | -0.065
O=C(COc1cccc(Br)c1)OCCN1C(=O)c2ccccc2C1=O | 0.4 | -0.39
O=C1CN(C(=O)CCC(=O)c2cccs2)c2ccccc2N1 | 0.5 | 0.83
COC(=O)c1ccc(NCN2C(=O)C3CC=CCC3C2=O)cc1 (configuration not stated) | -0.55 | 0.06
C=CCOc1ccc(-c2nc3c(sc(=S)n3C)c(=O)[nH]2)cc1OC | -1 | -0.26
CN(C)CC(=O)N1c2ccccc2CCc2ccc(N)cc21 | nt | 6
O=C(O)C1CC=CCC1C(=O)NCc1ccccc1 (configuration not stated) | -0.55 | -0.3
CCc1ccc(C2C(C#N)=C(N)SC(N)=C2C#N)cc1 | 1.8 | -1.1
O=C1CC(c2ccco2)Cc2nc(NCc3ccccc3)ncc21 (configuration not stated) | 0.35 | 0.62
O=C(CCCCCNC(=O)OCc1ccccc1)NNC(=O)c1cnn(-c2ccc([N+](=O)[O-])cc2)c1C(F)(F)F | nt | 0.04
O=C(O)CCNC(=S)Nc1cccc(F)c1 | nt | -0.7
Cc1nc(-c2cccs2)sc1C(=O)OCc1cc(=O)n2c(C)csc2n1 | 1.4 | nt
COCCn1c(CCC(=O)NCc2ccc(OC)cc2)nc2cccnc21 | 0.3 | -1.1
C/C(=N/N1CCc2ccccc21)C(=O)NCC1CCCO1 (configuration not stated) | nt | -1.8
O=C1CC(=O)NC(SCC(=O)Nc2nc(-c3ccccc3)cs2)=N1 | 0.05 | -0.78

One compound at a time, as listed above:
O=C(O)C1CC=CCC1C(=O)NCc1ccccc1 (configuration not stated) as listed: AID504770: -0.55; Ba CapD inh: -0.3
O=C(O)CCNC(=S)Nc1cccc(F)c1 as listed: AID504770: nt; Ba CapD inh: -0.7

More records
SMILES | AID504770 | Ba CapD inh
COc1ccc(/C=C/C(=O)NCCCN2CCCCCC2)cc1 | -0.55 | 0.62
CCCCn1c(CCC)nc2ccccc21 | -1.3 | nt
CC(=O)SC1CC(=O)N(c2c(C)cccc2C)C1=O (configuration not stated) | -0.25 | 0.6
Cc1nc2ccccn2c1-c1ccnn1C(=O)c1ccno1 | -1.8 | 80
CC(CC(=O)NCc1ccccc1)CC1=NS(=O)(=O)c2ccccc2N1 (configuration not stated) | 2 | 3.8
CNC(=O)c1sc2nc(C)cc(C)c2c1-n1cccc1 | -0.9 | -2.7
Cc1cc(C)c2c(C(=O)O)cc(=O)[nH]c2c1 | 1.2 | 0.27
O=C(COC(=O)c1ccncc1)NCc1ccccc1 | -3.5* | 0.57
CCCN1CCC(N(C2CC2)S(=O)(=O)c2ccc(NC(=O)Nc3ccccc3C(F)(F)F)cc2)CC1 | nt | -0.51
COc1ccc(N2CCN(c3cc(C)nc4ccc(OC)cc34)CC2)cc1 | -0.55 | nt
Cc1cc(NC(=O)OC2CCCC2)ccc1NC(=O)OC1CCCCC1 | 0 | nt
Cc1c(Cl)cccc1NC(=S)NCC(c1ccccc1)c1c[nH]c2ccccc12 (configuration not stated) | 0 | -0.22
OC(CNCc1ccc(F)cc1)(c1ccc(F)cc1)c1ccc(F)cc1 | nt | -0.005
Cc1cc(C)n(-c2ccc(-n3cccc3/C=C(/C#N)S(=O)(=O)c3ccccc3)cc2)n1 | 2 | -0.43
O=C(NC1CCCc2ccccc21)c1ccccc1 (configuration not stated) | -0.15 | 1.1
COC1(NS(=O)(=O)c2ccc(C)cc2)C(C)=CC(=O)C=C1C | 0.45 | 0.035
CCN(CC(=O)NCc1cccs1)C(=O)c1cccc(OC)c1 | 2 | nt
O=S(=O)(Nc1ccc(N2CCOCC2)cc1)c1ccccc1 | 0.25 | 0.2
COc1nc(NCc2ccccc2)nc(NC2CCCCC2)n1 | -1.2 | 0.27
O=C(CSc1cccc[n+]1[O-])c1ccc2ccccc2c1 | -0.2 | 1.1
Cc1c(C)c2ccc(O)c(CN(C)C)c2oc1=O | 0 | 91
O=C(NCC1CCN(c2ccc(S(=O)(=O)N3CCOCC3)cc2)CC1)c1ccccc1 | 0.3 | nt
O=C1NCCc2c1[nH]c1ccc(C3CCCCC3)cc21 | nt | 2.5
COC(=O)C1=CN(C)C=C(C(=O)OC)C1c1ccc(C(F)(F)F)cc1 | 0.05 | 24
CCCCN(C)C(=O)Cn1cc(S(=O)(=O)NC)c(S(=O)(=O)NC)c1 | 0.9 | -0.76
OCCOC12CC3CC(CC(C3)C1)C2 | 0.1 | 0.39
COC(=O)c1cnc(NNC(=O)Cc2ccccc2)nc1C(F)(F)F | -1.1 | -0.055
CSc1nnc(CCNC(=O)c2ccc3c(c2)OCO3)n1C | -1.6 | nt
CC(=O)c1cc2c3c(c1)C1C=CCC1C(c1ccc(Br)cc1)N3CC1CC=CC21 (configuration not stated) | nt | 10
O=C(Nc1cccc(N2CCCC2=O)c1)c1ccccc1 | 0.4 | 0.51
Cn1nc(C(F)(F)F)c(C#N)c1N1CCN(c2ccc(F)cc2)CC1 | nt | -0.69
COc1ccc(OCCNS(=O)(=O)c2ccc(OC)c(OC)c2)cc1 | nt | -0.24
CCOC(=O)c1c(-c2ccccc2)oc2c1cc(OC(=O)c1ccc(Br)cc1)c1ccccc12 | nt | -0.04
O=C(c1ccc(F)c(F)c1)N1CCc2c([nH]c3ccccc23)C1c1ccc(Cl)cc1 (configuration not stated) | nt | -0.41
O=C1OC(C2OC(=O)c3ccccc32)c2ccccc21 (configuration not stated) | -1.3 | 0.18
O=C(Cc1c[nH]c2ccccc12)N/N=C/c1cccc(Oc2cccc(C(F)(F)F)c2)c1 | nt | -0.61
O=C(NCCCN1CCOCC1)c1ccc(-n2cccc2)cc1 | nt | -0.81
Cc1ccc(N2CCN(C(=O)OCCSCc3ccc4nonc4c3)CC2C)cc1 (configuration not stated) | nt | -1
CCc1cc2c(COC(=O)c3ccc4c(c3)OCCO4)cc(=O)oc2cc1O | -0.2 | nt
COc1ccc2c(C)nc(N=C(NC(C)=O)NC(C)=O)nc2c1 | -0.2 | 2.7
COC(=O)c1ccc(/C=N/N2C(C)CCCC2C)cc1 (configuration not stated) | 0.65 | nt
CC(NCc1ccccc1)c1cc(Cl)ccc1O (configuration not stated) | -0.9 | -0.095
Cc1ccc(NC(=O)CC2SC3=NCCN3C2=O)cc1 (configuration not stated) | 1.2 | nt
O=C(CCN1CCOCC1)Nc1ccc(F)cc1F | nt | 0.32
CCc1ccc(OCC(=O)N2CCOCC2)cc1 | -0.55 | -0.1
CC(C)(C)c1cc(Cc2ccccc2)[nH]n1 | -0.1 | 0.83
O=C(NCCC1=CCCCC1)c1cc(-c2ccccc2)n[nH]1 | -0.3 | -0.065
CN1CCN(C(=O)c2cc3c(-c4ccc(Cl)cc4)nn(C)c3s2)CC1 | 1.7 | -0.25
CC(C(=O)N1CCN(c2ccccn2)CC1)n1ncn2cccc2c1=O (configuration not stated) | 0.3 | 8.9
CCOC(=O)c1c(CN2CCC(C)CC2)n(C)c2cc(Br)c(OC)cc12 | nt | -0.075

Already shown: entries from further up.
SMILES | AID504770 | Ba CapD inh
CC(C(=O)N1CCN(c2ccccn2)CC1)n1ncn2cccc2c1=O (configuration not stated) | 0.3 | 8.9
CCOC(=O)c1c(CN2CCC(C)CC2)n(C)c2cc(Br)c(OC)cc12 | nt | -0.075

Additional results follow:
SMILES | AID504770 | Ba CapD inh
CC(=O)N1C(c2ccccc2)CC(=O)OC1c1ccc2c(c1)OCO2 (configuration not stated) | -0.8 | -0.29
CCC(C)(C)n1nnnc1CN(Cc1ccccc1)Cc1cc2cc(OC)ccc2[nH]c1=O | -0.2 | nt
O=c1c(CN2CCN(Cc3ccccc3)CC2)cc2cccc3c2n1CCC3 | nt | 5.7
O=S(=O)(/N=C/c1c(O)ccc2ccccc12)c1ccccc1 | -0.7 | 30
CCOC(=O)c1[nH]c2ccccc2c1NC(=O)c1cccc(C(F)(F)F)c1 | nt | 0.56
Cc1ccc(NC(=O)c2ccc(F)cc2)c(C)c1 | 0.35 | -0.76
CCCN1CCC(NCc2ccc(Br)cc2)CC1 | -0.45 | -0.22

Assay outcomes (PubChem BioAssay)

Not a hit list (roughly 0.39% active in at least one column).
